Bioassay records: PubChem, NMMLSC
FPR: small-molecule ligands of human FPR – U937-FPR cells, fMLFK-FITC, flow cytometry, primary screen (AID 362). inhibition, %. 1% of 4,300 active. U937-FPR cells, fMLFK-FITC displacement, flow cytometry; stronger effect = higher value; test concentration not given here; most inactive calls were filed without a number and no value below 0 was filed;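 active = inhibition of labelled peptide binding to the formyl peptide receptor of at least 65%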;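 also: plate controls were buffer control wells for no effect and unlabeled fMLFF blocking peptide for full effect; higher means less cell fluorescence so more probe displaced; part of the set was picked by virtual screening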
An asterisk follows results filed as active; i = inactive. This is a subset; the hit share may differ from the screen's.

SMILES	FPR
CC1CCC(C(=O)NC(C(=O)N2CCC3(CC2)OCCO3)C(C)C)CC1 (configuration not stated)	i
CCCCc1nc2ccccc2c(=O)n1-c1ccc(OC)cc1	12.5
CCOC(=O)N(CC)c1ccc(C(O)(C(=O)OC)C(F)(F)F)cc1 (configuration not stated)	i
N#Cc1c2c(c(NCCO)n3c1nc1ccccc13)CCCC2	i
CN1C(=O)C(C2(C#N)CCCCC2)C(=O)N(C)C1=O	6.0
CCOP1(=S)Oc2cc3c(cc2C(C(=O)OC)(C(F)(F)F)O1)OCO3 (configuration not stated)	i
CCCCCCCC1C(C#N)=C(N)Oc2c1c(=O)oc1ccccc21 (configuration not stated)	i
C=CCN1C(=O)C2(C(C(=O)OC)=C(N)OC3=C2C(=O)CC(C)(C)C3)c2ccccc21 (configuration not stated)	i
CCOC(=O)C1=C(N)OC2=C(C(=O)CC(C)(C)C2)C12C(=O)N(CC(=O)OC)c1ccccc12 (configuration not stated)	20.7
COc1ccc(S(=O)(=O)NC(CC(=O)N2CCC3(CC2)OCCO3)C(C)C)cc1 (configuration not stated)	i
COc1ccc(C2(CN)CCCC2)cc1	i
COC(=O)CN1C(=O)C2(C(C(=O)OC)=C(N)OC3=C2C(=O)CC(C)(C)C3)c2ccccc21 (configuration not stated)	0.6
COC(=O)C1=C(N)OC2=C(C(=O)CC(C)(C)C2)C12C(=O)N(C)c1ccccc12 (configuration not stated)	21.9
C=CCc1cc(/C=C2\C(=O)NC(=O)N(c3ccc4c(c3)OCO4)C2=O)cc(OC)c1OCC(=O)O	i

Arranged by SMILES length (largest number first): part of the list above.
SMILES	FPR
CCOC(=O)C1=C(N)OC2=C(C(=O)CC(C)(C)C2)C12C(=O)N(CC(=O)OC)c1ccccc12 (configuration not stated)	20.7
COC(=O)CN1C(=O)C2(C(C(=O)OC)=C(N)OC3=C2C(=O)CC(C)(C)C3)c2ccccc21 (configuration not stated)	0.6
COc1ccc(S(=O)(=O)NC(CC(=O)N2CCC3(CC2)OCCO3)C(C)C)cc1 (configuration not stated)	i
CC1CCC(C(=O)NC(C(=O)N2CCC3(CC2)OCCO3)C(C)C)CC1 (configuration not stated)	i
N#Cc1c2c(c(NCCO)n3c1nc1ccccc13)CCCC2	i

Among those listed so far, two have a CF3 group:
SMILES	FPR
CCOC(=O)N(CC)c1ccc(C(O)(C(=O)OC)C(F)(F)F)cc1 (configuration not stated)	i
CCOP1(=S)Oc2cc3c(cc2C(C(=O)OC)(C(F)(F)F)O1)OCO3 (configuration not stated)	i
